# GIV-Gai inh = blocks GIV peptide binding to rat Galpha-i3. P08753. Galpha-i3/FITC-GIV peptide fluorescence polarization, 90 min; active compounds read low; scaled: aluminum fluoride 0%, vehicle 100%. hit rate 0.42% among 210,000. AID 1224905. percent of control (FP), % (no concentration beside the values);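 active = replicate mean at 85% of control or lower, very high polarization wells dropped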;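 note: wells of about 15 µL received 100 nL stock; the first replicate is given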
# Target sequence (P08753 whole entry, looked up): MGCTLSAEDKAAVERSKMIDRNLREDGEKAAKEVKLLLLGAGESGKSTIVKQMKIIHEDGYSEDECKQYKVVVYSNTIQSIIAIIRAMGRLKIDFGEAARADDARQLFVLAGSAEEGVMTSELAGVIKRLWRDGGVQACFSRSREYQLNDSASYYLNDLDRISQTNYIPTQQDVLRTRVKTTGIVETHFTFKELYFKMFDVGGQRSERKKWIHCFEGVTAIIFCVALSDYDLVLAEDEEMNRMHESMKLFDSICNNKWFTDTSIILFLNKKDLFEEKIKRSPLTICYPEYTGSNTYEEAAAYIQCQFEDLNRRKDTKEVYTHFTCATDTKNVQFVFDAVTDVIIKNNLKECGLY
# Active calls of the source: *.
GIV-Gai inh,canonical_smiles
110,Cc1c(S(=O)(=O)N2CCCCC2)c(C)n(C)c1-c1nnc(C2CCC2)o1
104,Cc1cc(C2CCCN2C(=O)Nc2cccc(Cl)c2)no1 (configuration not stated)
106,CC(C)CCNC(=O)CC1CCN(S(=O)(=O)c2ccc(Br)s2)CC1
98,Cc1noc(C)c1C1CCCN1C(=O)c1nn(C)cc1Cl (configuration not stated)
105,O=C(NCc1ccc(Br)cc1)c1ccc(-c2cc(N3CCCC3)ncn2)cc1
110,CC1(C)CC(=O)C2=C(C1)c1c(ccc3ccccc13)NC2c1cn(Cc2ccc(Cl)cc2)c2ccccc12 (configuration not stated)
105,Cc1sc(-c2cc(C(F)(F)F)[nH]n2)cc1S(=O)(=O)N1CCN(c2cccc(Cl)c2)CC1
105,CCOC(=O)c1cnn(-c2ccc(C(=O)N3CCN(C)CC3)cc2)c1N
98,CCc1ccc(N2C=C(C(=O)N3CCCC3)S(=O)(=O)c3ccccc32)cc1
108,Cc1ccc(NC(=O)CSc2nnc(NC(=O)CSc3nnc4n(N)cnn34)s2)cc1
108,COc1ccc(/C=C2/SC(=S)N(CN3CCC(C)CC3)C2=O)cc1
107,CCOC(=O)C1CCN(CN2C(=O)C3(SCC(=O)N3c3ccc(C)c(Br)c3)c3ccccc32)CC1 (configuration not stated)
109,C#CCOc1ccc2c3c(c(=O)oc2c1)CCCC3
103,CCOc1cc(CN2CCCC2c2cc(C(C)C)no2)ccc1OC(C)C (configuration not stated)
105,CCSc1nc2ccc(NC(=O)CSCC(=O)Nc3ccccc3)cc2s1
111,CC(=O)Nc1ccccc1N(CC(O)Cn1c2ccccc2c2ccccc21)S(=O)(=O)c1ccc(C)cc1 (configuration not stated)
105,CCOc1ccc(N2C(=O)/C(=C\c3ccc(C(C)(C)C)cc3)S(=O)(=O)C2c2cccc([N+](=O)[O-])c2)cc1 (configuration not stated)
113,Clc1cc(Cl)cc(NC2=NC3(CCCCC3)Cc3ccccc32)c1
101,CC(=O)Oc1ccc2oc3c(c2c1)C(=O)CCC3
106,CC(C)NC(=O)C(C)C1CCN(S(=O)(=O)c2ccc(Br)s2)CC1 (configuration not stated)
109,Cc1ccc(-c2c(C(=O)NCCN3CCN(c4ccccc4)CC3)oc(=O)c3ccccc23)cc1
109,Cc1ccc(N=C(NOCc2cccc([N+](=O)[O-])c2)c2nonc2N)cc1
101,O=C1CSC2(C(=O)N(CN3CCN(c4ccccc4)CC3)c3ccccc32)N1c1cccc(C(F)(F)F)c1 (configuration not stated)
104,Cc1ccc(NC(=O)CCc2nc(-c3ccc(S(=O)(=O)N4CCCC4)cc3)no2)c(C)c1
104,COCCCNC(=O)c1cc(-c2ccc(OC)c(OC)c2)nc2n[nH]c(-c3ccc(OC)cc3)c12
111,CCOC(=O)c1ccc(N=c2ssc3c2-c2cc(OC)ccc2NC3(C)C)cc1
99,CC1(C(=O)NCc2ccc(F)cc2)CCCN(C(=O)c2cccc(Cl)c2)C1 (configuration not stated)
98,CCN(CC)C(=O)c1ccc(-c2nc3cc(NS(=O)(=O)c4ccccc4Cl)ccc3n2C)cc1
104,Cc1ccc(CNC(=O)C2(C)CCCN(C(=O)NCCC(C)C)C2)cc1 (configuration not stated)
100,CC(C)CNC(=O)c1cccc(-c2ccc(N3CCCC3)nn2)c1
105,NC(=O)C1NCCc2c1[nH]c1ccccc21 (configuration not stated)
103,O=C(CCn1cnc2cc(-c3noc(C4(c5ccccc5)CC4)n3)ccc21)N1CCCC1
108,Cc1ccc(NC(=O)/C(=C\c2ccc3c(c2)OCO3)NC(=O)c2ccccc2Br)c(Br)c1
109,COc1ccc(C(C)=O)cc1CSc1nc(NCC2CCCO2)c2ccccc2n1 (configuration not stated)
106,Cc1cc2c(cc1C(=O)NCc1ccc3c(c1)OCCCO3)OCCCO2
103,C=C1OC(=O)OC1(C)CCC1=C(C)CCCC1(C)C (configuration not stated)
106,CCN(CC)CCNC(=O)CC1CCN(S(=O)(=O)c2cccs2)CC1
104,O=C1C2C(c3cccc(Br)c3)OC3(C(=O)c4ccccc4C3=O)C2C(=O)N1c1ccc([N+](=O)[O-])cc1 (configuration not stated)
113,OC12CCCCC1C1(O)CCCCC1C1(CCCCC1)O2 (configuration not stated)
119,COc1ccc(N2CCN(C(=O)c3sc4nc(C)nc(N5CCC(C)CC5)c4c3C)CC2)cc1
103,N#CC1=C(N)Oc2n[nH]c(-c3cccc([N+](=O)[O-])c3)c2C12C(=O)Nc1ccc(F)cc12 (configuration not stated)
105,COc1ccc(C(=O)N2CCN(CCNC(=O)C(=O)Nc3ccc(C)cc3)CC2)cc1
110,O=C(Nc1cccc(C(F)(F)F)c1)c1ccc(F)c(S(=O)(=O)N2CCN(c3ccccc3F)CC2)c1
100,CCOC(=O)c1c(NC(=O)c2cccc(-n3cnnc3)n2)sc2c1CCCC2
111,CN1CCN(CC(O)Cn2c3ccc(Cl)cc3c3cc(Cl)ccc32)CC1 (configuration not stated)
103,CCN1CCCC1CNS(=O)(=O)c1cc(-c2nc(-c3ccc(F)cc3)no2)sc1C (configuration not stated)
128,O=C1CCCc2c1c1cc(NS(=O)(=O)c3ccccc3)ccc1n2S(=O)(=O)c1ccccc1
103,CCOC(=O)c1oc2ccc(S(=O)(=O)N3CCCC3c3cc(C)on3)cc2c1C (configuration not stated)
110,COC(=O)C1=C(C(=O)OC)SC(=C2C(=S)C(C)(C)N(C(=O)CN3C(=O)CCC3=O)c3ccccc32)S1
106,O=C1/C(=C/c2ccc(-c3ccc(Br)cc3)o2)C=C(c2ccccc2)N1c1ccc(Cl)cc1
106,CCOCCn1cnc2sc(C(=O)NCC(=O)OCC)c(C)c2c1=O
99,CCOc1ccc(NC(=O)NCc2nnnn2-c2ccccc2)cc1
104,Cc1csc(-c2cc(S(=O)(=O)NCc3ccc(C(C)C)cc3)cn2CC(=O)N2CCCC2)n1
102,CC(C)n1nccc1-c1csc(S(=O)(=O)NCc2cccs2)c1
112,CCOC(=O)c1c(CSc2ccccc2)n(-c2ccccc2)c2ccc(O)cc12
101,CC(Oc1ccc2c3c(c(=O)oc2c1)CCCC3)C(=O)O (configuration not stated)
100,CNC(=O)c1n[nH]c2c1CCCCCC2
104,COc1ccc(CCn2c(=S)[nH]c3cc(C(=O)N4CCC(C(N)=O)CC4)ccc3c2=O)cc1OC
110,CC(=O)Nc1sc2c(c1C(=O)Nc1ccccc1Cl)CCC2
97,CCS(=O)(=O)Nc1cc(-c2nnc(C(C)C)o2)sc1C

# Remaining list, next part:
GIV-Gai inh,canonical_smiles
111,COc1ccccc1CNS(=O)(=O)c1ccc(F)c(C(=O)Nc2cc(C(F)(F)F)ccc2Cl)c1
108,CCc1ccc(C2(c3ccc(CC)cc3)SC3(SC(C(C)=O)=NN3c3ccc([N+](=O)[O-])cc3)c3ccccc32)cc1 (configuration not stated)
109,COc1cccc(C(=O)N2c3c(C)cccc3-c3c(ssc3=S)C2(C)C)c1
101,COc1ccccc1N1CCN(S(=O)(=O)c2ccc3[nH]c(=O)ccc3c2)CC1
152,COc1cccc(-c2cn3nc(C)c(C)nc3n2)c1
102,O=C1c2ccccc2C(=O)c2cc(S(=O)(=O)Nc3nc(-c4ccccc4)cs3)ccc21
104,O=C(NC1CCS(=O)(=O)C1)c1cccc(S(=O)(=O)N2CCOCC2)c1 (configuration not stated)
107,C=CCn1c(SCc2nc(-c3cc(OC)cc(OC)c3)no2)nc2cc3c(cc2c1=O)OCO3
98,Cc1ccc(Cn2nc3c(S(=O)(=O)N4CCOCC4)cccn3c2=O)cc1
105,O=C(CSc1nc2cc(C(=O)N3CCOCC3)ccc2c(=O)n1CCc1ccccc1)c1ccccc1
103,O=C(Nc1ccc(Oc2cc3ccccc3cc2Cl)c(Cl)c1)c1cc(Br)cc(Br)c1O
99,Cn1c(-c2ccccc2)c(C2Nc3ccc4ccccc4c3C3=C2C(=O)CC(C)(C)C3)c2ccccc21 (configuration not stated)
106,CCC(C)(C)NC(=O)CN(C)S(=O)(=O)c1cc2c(cc1C)NC(=O)C(C)O2 (configuration not stated)
102,COc1cc(NC(=O)C2CCC(CNS(=O)(=O)c3cccc4cccnc34)CC2)cc(OC)c1 (configuration not stated)
119,CC1(C)CC(=O)C2=C(C1)OC1=C(C(=O)CC(C)(C)C1)C2c1cccc(OCc2c(F)cccc2Cl)c1
109,O=C(Nc1c(F)cc(F)cc1Br)c1cc(S(=O)(=O)N2CCC3(CC2)OCCO3)ccc1F
106,COc1ccc(NC(=O)CSc2nc3[nH]ncc3c(=O)n2-c2ccc(F)c(Cl)c2)cc1OC
100,Cc1nc(CNC(=O)[C@H]2CSCN2C(=O)Nc2ccc(C)c(F)c2)cs1
109,O=C(Nc1ccc(C(F)(F)F)cc1)c1cc(S(=O)(=O)N2CCN(c3ccccc3F)CC2)ccc1F
98,O=C(Nc1ccc2c(c1)OCO2)N1CCCN(c2nc3cc(Br)ccc3n3cccc23)CC1
110,COc1ccc(C(NC(=O)c2cccnc2)c2cc(Cl)c3cccnc3c2O)cc1 (configuration not stated)
109,CC1(C)CC(=O)C2=C(C1)Nc1ccc3ccccc3c1C2c1ccc(OCc2ccccc2)cc1 (configuration not stated)
104,Cc1ccc(S(=O)(=O)Oc2ccc(C3(C)CC(C)(C)NC(=S)N3c3ccccc3)c(OS(=O)(=O)c3ccc(C)cc3)c2)cc1 (configuration not stated)
105,CC(C)Oc1ccc(-c2noc(CS(=O)(=O)c3ccc(Br)cc3)n2)cc1
209,CCOC(=O)C1=C(O)/C(=C/c2ccc(N(CC)CC)cc2)SC1=Nc1ccccc1
104,N#CC1=CN(c2ccc(Cl)c(Cl)c2)c2cc(Cl)ccc2S1(=O)=O
102,COc1ccc(-c2cc(N3CCN(C(=O)Nc4cc(Cl)c(OC)cc4OC)CC3)ncn2)cc1
105,CN1CCN(C(=O)CSc2nc(-c3ccccc3)cc(-c3ccc(F)cc3)c2C#N)CC1
103,FC(F)(F)C1(C(F)(F)F)N=C(c2ccncc2)OC(N2CCCCC2)=N1
100,O=c1ccc2cc(S(=O)(=O)N3CCN(c4ccc(N5CCOCC5)nn4)CC3)ccc2[nH]1

# Nothing new here: an excerpt of the list.
GIV-Gai inh,canonical_smiles
111,COc1ccccc1CNS(=O)(=O)c1ccc(F)c(C(=O)Nc2cc(C(F)(F)F)ccc2Cl)c1
108,CCc1ccc(C2(c3ccc(CC)cc3)SC3(SC(C(C)=O)=NN3c3ccc([N+](=O)[O-])cc3)c3ccccc32)cc1 (configuration not stated)

# Following part
GIV-Gai inh,canonical_smiles
110,CCOC(=O)c1sc2nc(SCC(=O)O)n(Cc3ccccc3)c(=O)c2c1C
97,Cc1nc(SCC(=O)Nc2c(C)cccc2C)c2c3c(sc2n1)CCC3
105,Cc1ccc(N(C)S(=O)(=O)c2ccc3[nH]cc(C(=O)N4CCN(c5ccccc5)CC4)c(=O)c3c2)cc1C
115,COc1cc(C2C(N3C(=O)c4ccccc4C3=O)C(=O)N2c2ccc(C)c(F)c2)cc(OC)c1OC (configuration not stated)
102,CC(C)Cc1ccc(S(=O)(=O)Nc2ccc(-c3nnc(-c4ccccc4)o3)cc2)cc1
115,O=C1/C(=C/c2ccc(-c3ccc([N+](=O)[O-])cc3)o2)C=C(c2ccccc2)N1c1ccccc1Cl
112,Cc1ccc2c(c1)/C(=C/c1ccc3c(c1)OCO3)c1cccnc1-2
108,CCOC(=O)C1CCC(CNC(=O)N2CCC3(CC2)Nc2ccccc2-n2cccc23)CC1 (configuration not stated)
106,CCOC(=O)c1ccccc1NC(=O)c1sc2ncn(CC(=O)Nc3ccccc3OC)c(=O)c2c1C
98,Cc1ccc(-c2nc(CN3CCCC(C(=O)Nc4cc(Cl)ccc4O)C3)no2)cc1 (configuration not stated)
118,Cc1ccc(/C=C2/SC(=S)N(CN3CCC(C)CC3)C2=O)cc1
102,Cc1cc(-c2c(C)sc(C)c2S(=O)(=O)NC2CCCCCC2)n[nH]1
103,Cc1cccc(NC(=O)c2ccc3nnc(SCC(=O)Nc4cccc(F)c4)n3c2)c1
104,Cc1nc(N2CCC(C)CC2)c2c(C)c(C(=O)N3CCCCC3C)sc2n1 (configuration not stated)
103,CC1CCN(c2nc(N3CCOCC3)nc(N3CCOCC3)n2)CC1
108,COc1ccc([N+](=O)[O-])cc1-c1[nH]c(-c2cccs2)nc1-c1ccccc1
108,CCNc1cc(C)nc(Nc2ccc(NS(=O)(=O)c3ccc(C)cc3)cc2)n1
100,Cc1ccc(S(=O)(=O)NC2CCN(C(=O)c3cc4cc(Cl)ccc4[nH]3)CC2)cc1
106,COc1ccc(Cl)cc1NS(=O)(=O)c1c(C)sc(C)c1-c1cc(C(F)(F)F)on1
105,CCOC(=O)CSc1nc(N2CCOCC2)c2c(c1C#N)CC(C)(C)OC2

# Structural class: the entries above containing a CF3 group.
GIV-Gai inh,canonical_smiles
105,Cc1sc(-c2cc(C(F)(F)F)[nH]n2)cc1S(=O)(=O)N1CCN(c2cccc(Cl)c2)CC1
101,O=C1CSC2(C(=O)N(CN3CCN(c4ccccc4)CC3)c3ccccc32)N1c1cccc(C(F)(F)F)c1 (configuration not stated)
110,O=C(Nc1cccc(C(F)(F)F)c1)c1ccc(F)c(S(=O)(=O)N2CCN(c3ccccc3F)CC2)c1
111,COc1ccccc1CNS(=O)(=O)c1ccc(F)c(C(=O)Nc2cc(C(F)(F)F)ccc2Cl)c1
109,O=C(Nc1ccc(C(F)(F)F)cc1)c1cc(S(=O)(=O)N2CCN(c3ccccc3F)CC2)ccc1F
103,FC(F)(F)C1(C(F)(F)F)N=C(c2ccncc2)OC(N2CCCCC2)=N1
106,COc1ccc(Cl)cc1NS(=O)(=O)c1c(C)sc(C)c1-c1cc(C(F)(F)F)on1

# Screens from PubChem BioAssay.

# A portion of the library; the hit share may differ from the screen's.
